Compound activity (PubChem BioAssay)
Rango release inh = qHTS Assay for Inhibitors of RanGTP induced Rango (Ran-regulated importin-beta cargo) - Importin beta complex dissociation; Snurportin-1 (Homo sapiens) + GTP-binding nuclear protein Ran (Homo sapiens) + Importin …; Biochemical FRET Rango-importin beta, RanGTP-induced dissociation; Potency, µM (titrated, usually from 46.1 µM), without a hit: at the highest dose activity change, negative = inhibition; hit rate 0.071% among 340,000; active means falling FRET ratio curve, often poorly fitted, with flat reads before Ran was added; inconclusive means other falling curves, or compound fluorescence or quenching; inactive means flat or rising ratio curve;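 note: potency is the fitted concentration of half-maximal effect; % of control where 0% means no effect; nearly all actives have a fitted effect of over 45% in size; -100% = wells without RanGTP and RCC1; the record marks most hits as doubtful in a second field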
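Compounds sat 5 min at room temperature with 0.1 uM Rango biosensor plus 0.25 uM importin beta, then FRET pre-read. RanGTP-RCC1 (0.6 uM Ran, 2mM GTP, 0.2 uM RCC1) added for 45 min, and the CFP/YFP post-read measured blocked complex dissociation.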
miR-21 FLuc = qHTS Assay for Modulators of miRNAs and/orActivators of miR-21; HeLa miR-21 FLuc reporter, luciferase, 48 h; Potency, µM (series often up to 38.3 µM), for the others: at the highest dose reporter change, positive = more light; 340,000 tested, under 10 active; AID 2288, 2010; active = well fitted rising curve with a large enough effect; inconclusive = small, poorly fitted or top-dose-only effect; inactive = no such curve, though single readings can be large or run the other way;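 note: % of control where 0% means no effect; miR-21 action dims this reporter so a rising signal means less miR-21 action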
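HeLa cells stably expressing CMV-driven firefly luciferase with a downstream miR-21 binding sequence, endogenously expressing miR-21, were treated with titrations (up to about 40uM final) for 48 hours at 37 degree Celsius. Luciferase luminescence was read after lysis.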
Rango-impB inh = qHTS Assay for Inhibitors of Rango (Ran-regulated importin-beta cargo) - Importin beta complex formation | Rango CFP/YFP FRET sensor + importin beta, 45 min | Potency, µM (titrated, usually from 92.2 µM), inactives show at the top dose inhibition of complex formation | hit rate 0.031% among 340,000; active = rising FRET ratio curve, often small or poorly fitted; inconclusive = mostly compound fluorescence or quenching in the first reads; inactive = flat curves in all reads;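 note: potency is the fitted concentration of half-maximal effect; 0% = DMSO wells and 100% = buffer wells lacking importin beta; nearly all actives have a fitted effect of over 15% in size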
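FRET biosensor Rango (snurportin 1 IBB between N-terminal EYFP and C-terminal Cerulean), 50 nM in PBS/1 mM DTT/0.02% Tween-20/0.1% BSA, preincubated 5 min RT with compound; 0.125 microM importin beta added, 45 min RT, CFP/YFP FRET ratio read.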
GLA inh pH 4.5 = qHTS Assay for Inhibitors of Human alpha-Galactosidase at pH 4.5; purified enzyme, 4-MU-alpha-Gal fluorescence, pH 4.5; Alpha-galactosidase A (Homo sapiens), P06280; activity change, negative = inhibition, % at 105 µM; 230,000 tested, under 10 active; inconclusive = small, poorly fitted or top-dose-only inhibition, or a rising curve; inactive = flat fitted curve, though single readings scatter; no compound was filed as active;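 note: 0% = full activity with enzyme and -100% = basal without enzyme; dose as in the result columns while the protocol names 77 µM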
Target sequence (P06280 whole entry, looked up): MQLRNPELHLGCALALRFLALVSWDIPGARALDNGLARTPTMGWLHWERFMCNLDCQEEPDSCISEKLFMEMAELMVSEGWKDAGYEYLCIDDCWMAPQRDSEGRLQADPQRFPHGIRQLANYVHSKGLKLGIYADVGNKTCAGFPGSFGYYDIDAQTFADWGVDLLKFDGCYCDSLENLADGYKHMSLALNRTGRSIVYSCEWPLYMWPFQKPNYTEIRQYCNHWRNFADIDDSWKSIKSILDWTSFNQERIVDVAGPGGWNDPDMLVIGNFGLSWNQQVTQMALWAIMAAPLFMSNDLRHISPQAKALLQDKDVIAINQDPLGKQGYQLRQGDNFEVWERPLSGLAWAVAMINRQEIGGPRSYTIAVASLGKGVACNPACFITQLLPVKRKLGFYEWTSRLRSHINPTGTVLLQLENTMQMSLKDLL
Active calls of the source: *; u = inconclusive; x = no result given; & = joins results of further samples.

Molecule	Rango release inh	miR-21 FLuc	Rango-impB inh	GLA inh pH 4.5
CC1(C)Cc2c(sc3c2C(=O)N(c2ccccc2)C2=NCCN23)CS1	2%	-9%	-1.6%	7
CC(C)CN(C(=O)CCNC(=O)c1ccccc1Cl)C1CCS(=O)(=O)C1 (stereo not given)	0%	x	2.5%	x
COc1ccc(C)cc1NCc1ccc(OC)c(C)c1OC	-16%	-1%	0.1%	x
CN(Cc1ccccc1)CC(O)COc1ccc(CNCc2cccnc2)cc1 (stereo not given)	-8%	-6%	-0.4%	-1
COc1ccc(Br)cc1CN(C)C(=O)CNC(=O)c1ccc2ccccc2c1	-2%	0%	0.1%	x
COC(CN(C)C(=O)C1CCC(CNS(=O)(=O)c2ccc(C)cc2)CC1)OC (stereo not given)	8%	-1%	-0.1%	x
COc1ccc(OC(=O)c2ccc(Cl)cc2)c(C(C)=O)c1	-4%	-27%	1.4%	-4
COc1ccc(CN2CCNC(=O)C2CC(=O)NC2CCCC2)c(OC)c1 (stereo not given)	1%	-1%	-0.9%	x
CCCCC(=O)Nc1cccc(C(=O)Nc2ccccc2C(=O)O)c1	-5%	6%	0.2%	3
CCn1c(SCC(=O)NC2CCCC2)nc2c1c(=O)n(C)c(=O)n2C	16%	-1%	-0.9%	x
O=C(Nc1ccc(F)cc1)c1ccc(S(=O)(=O)N2CCOCC2)o1	13%	-6%	-3.4%	-6
O=C(/C=C/c1ccccc1)NNc1ccc(Cl)cc1	1%	4%	-0.6%	2
O=C(CSc1nnc(-c2ccccc2Cl)o1)N1CCOCC1	-12%	-69%	0.0%	x
O=C1c2cccc3cccc(c23)C(=O)N1CCCN1CCN(c2ccc(F)cc2)CC1	15%	-3%	2.3%	3
O=C(COC(=O)/C=C/c1cccc(Br)c1)NCCc1ccccc1	0%	x	-2.0%	x
CCC1(C)Cc2ccccc2/C(=C/C(=O)N2CCCCC2)N1 (stereo not given)	-10%	-12%	u	-2
Clc1ccc(Br)cc1-c1nc(-c2ccncc2)no1	-2%	-3%	0.2%	-3
COc1ccc(-c2cc(C(=O)N(C)Cc3ccccc3F)c3ccccc3n2)cc1OC	-9%	0%	0.1%	x
CCCCC(=O)Nc1cccc(-c2nc3ncccc3o2)c1	-5%	-5%	0.3%	5
CC(C)[C@H](NC(=O)OCc1ccccc1)C(=O)OCC(=O)N1C(C)CCCC1C (stereo not given in full)	-12%	x	-1.3%	x
C/C(=N\Nc1nc(C)cc(-c2ccccc2)n1)c1ccc(C)o1	-21%	11%	-3.5%	1
CCC(CNc1cc(OC)cc2cccnc12)NC1CCCCC1 (stereo not given)	27%	u	-0.7%	-16
CC1(C)Cc2c(sc3ncn4nnnc4c23)CO1	x	-1%	x	-4
CC(Oc1ccc(-c2ccccc2)cc1)C(=O)N/N=C/c1cccnc1 (stereo not given)	-4%	3%	-1.3%	x

A different layout for two compounds above.
> COC(CN(C)C(=O)C1CCC(CNS(=O)(=O)c2ccc(C)cc2)CC1)OC (stereo not given)
  Rango release inh: 8% | miR-21 FLuc: -1% | Rango-impB inh: -0.1% | GLA inh pH 4.5: x
> COc1ccc(OC(=O)c2ccc(Cl)cc2)c(C(C)=O)c1
  Rango release inh: -4% | miR-21 FLuc: -27% | Rango-impB inh: 1.4% | GLA inh pH 4.5: -4

Continuation.
Molecule	Rango release inh	miR-21 FLuc	Rango-impB inh	GLA inh pH 4.5
COc1cccc(C(=O)NC(=S)Nc2ccc(Cl)c(C(=O)O)c2)c1	-5%	-17%	0.4%	-5
CCC(=O)Nc1ccc(-c2cc(-c3ccccc3)nc(-c3ccc(NC(=O)CC)cc3)n2)cc1	-24%	-5%	-4.8%	1
O=C(C1CCCN(c2ncnc3c2nc2n3CCCCC2)C1)N1CCN(c2ccc(F)cc2)CC1 (stereo not given)	-2%	26%	-1.9%	x
COC(=O)C(C(=O)OC)c1ccccc1[N+](=O)[O-]	0%	-1%	3.6%	-3&3
Cc1ccc(NC(=O)CN(C)CC(=O)Nc2ccccc2C(=O)Nc2ccccc2)cc1	-3%	10%	-1.8%	-14
CC1(C)CC(=O)c2cnc(NC(=O)c3ccco3)nc2C1	2%	-32%	-0.6%	-6
S=c1[nH]ncn1/N=C/c1cccs1	14%	0%	5.2%	3
CCOC(=O)CNC(=O)Nc1nnc(-c2ccc(OCC)cc2)o1	1%	-5%	-0.3%	11

Later entries
molecule | Rango release inh | miR-21 FLuc | Rango-impB inh | GLA inh pH 4.5
COc1ccccc1-c1nn2c(=O)cc(C)nc2s1 | 21% | -21% | 0.1% | -3
CCCS(=O)(=O)c1c(S(=O)(=O)CCC)c2c(N)cccn2c1C(=O)c1ccc(OC)cc1 | u | 3% | u | -12
CS(=O)(=O)N1CCC(C(=O)NCCN2CCN(Cc3ccccc3)CC2)CC1 | -8% | -4% | -0.4% | -12
CC(C)CC1(C(=O)NCc2ccccn2)C=CCN1C(=O)c1ccccc1 (stereo not given) | 1% | -6% | -1.2% | -8&4
Cc1ccc(Nc2c3c(nc4ncnn24)CC(C)CC3)cc1 (stereo not given) | -7% | -7% | 0.0% | 1
Cc1ccc(S(=O)(=O)N2CCC(C(=O)OCC(=O)N3CCCCC3C)CC2)cc1C (stereo not given) | 6% | x | -0.7% | x
CCOC(=O)C1CCCN(C(=O)c2cc3c(=O)n4ccccc4nc3s2)C1 (stereo not given) | -8% | -8% | -0.3% | x
O=C(CSc1ccsc1[N+](=O)[O-])N1CCCCC1 | 21% | 2% | -0.2% | -2
O=C(NCCCCNC(=O)c1ccccn1)c1ccccn1 | -2% | -1% | 0.9% | 5
Fc1ccc(Oc2ncccn2)c(F)c1 | 4% | -3% | -1.8% | -1
Cc1cc(C)n(-c2nncn2NC(=O)c2ccc(Cl)cc2O)n1 | 0% | -3% | -2.2% | -2
Cc1c(NS(=O)(=O)c2ccc(Br)cc2)c(=O)n(-c2ccccc2)n1C | 8% | -11% | 2.1% | x
O=C(OCCN=C1NS(=O)(=O)c2ccccc21)c1ccccc1F | 4% | 0% | -1.0% | x
COc1ccccc1Nc1ncccc1C(=O)NCc1ccccc1 | -20% | -1% | -1.3% | 6
O=C(CSc1nncs1)NNC(=O)c1ccco1 | 7% | x | -1.5% | x
O=[N+]([O-])c1ccc(S(=O)(=O)NCC(c2cccnc2)N2CCc3ccccc32)cc1 (stereo not given) | -6% | x | 4.7% | x
CCOc1ccc(CN2CCN(CC(O)Cn3c4ccccc4c4ccccc43)CC2)cc1 (stereo not given) | 17% | u | -0.7% | -10
Cc1ccc(NC(=O)COC(=O)CCc2c(C)nc3nc(N)nn3c2C)cc1C | 1% | x | 1.9% | x
O=C(Nc1ccc(CN2CCCCC2)cc1)c1cccc(F)c1 | -12% | -34% | -0.9% | 0
COc1cccc(C2CC(c3cccs3)=NN2C(=O)CSC2=NN3CCCC(=O)N=C3S2)c1OC (stereo not given) | 8% | 1% | u | 0

Molecules from the list above containing a nitro group on carbon:
molecule | Rango release inh | miR-21 FLuc | Rango-impB inh | GLA inh pH 4.5
COC(=O)C(C(=O)OC)c1ccccc1[N+](=O)[O-] | 0% | -1% | 3.6% | -3&3
O=C(CSc1ccsc1[N+](=O)[O-])N1CCCCC1 | 21% | 2% | -0.2% | -2
O=[N+]([O-])c1ccc(S(=O)(=O)NCC(c2cccnc2)N2CCc3ccccc32)cc1 (stereo not given) | -6% | x | 4.7% | x

By substructure: the entries above containing a COOH group
molecule | Rango release inh | miR-21 FLuc | Rango-impB inh | GLA inh pH 4.5
CCCCC(=O)Nc1cccc(C(=O)Nc2ccccc2C(=O)O)c1 | -5% | 6% | 0.2% | 3
COc1cccc(C(=O)NC(=S)Nc2ccc(Cl)c(C(=O)O)c2)c1 | -5% | -17% | 0.4% | -5

(more compounds)
molecule | Rango release inh | miR-21 FLuc | Rango-impB inh | GLA inh pH 4.5
Oc1c(CN2CCCC(C(F)(F)F)C2)cc(Cl)c2ccccc12 (stereo not given) | -3% | 19% | -1.8% | x
Nc1nonc1C(=O)OCC(=O)N1CCCCC1 | 7% | -2% | 1.8% | 10
CC(Sc1nnc(-c2cccnc2)o1)C(=O)NC1CCCCC1 (stereo not given) | 11% | x | -0.1% | x
CCCCN1C(N)=NC[C@@H]1c1ccccc1 | 9% | x | 4.2% | x
C=Cc1ccc(Cn2c(=O)n(C)c(=O)c3sccc32)cc1 | 0% | 16% | 3.4% | x
Cc1ccc(C)c(C(=O)COC(=O)c2cc([N+](=O)[O-])ccc2N2CCOCC2)c1 | 7% | x | u | x
COC(=O)CN1C(=O)[C@H]2[C@@H](c3ccc(C)o3)N3C(=O)CN(Cc4ccccc4)C(=O)[C@@]3(Cc3ccccc3)[C@H]2C1=O | 3% | 1% | 3.0% | x
O=C(OCc1cccc2ccccc12)c1ccc2c(=O)[nH]c(CN3CCOCC3)nc2c1 | 2% | 2% | u | 3
COc1ccc(CC(=O)Nc2ccc3c(c2)CCC3)cc1S(=O)(=O)N1CCOCC1 | 9% | -12% | 0.3% | -5
CCOc1ccc(OCc2ccc(C(=O)N3N=C(C(F)F)CC3(O)C(F)F)o2)cc1 (stereo not given) | -11% | -17% | 3.0% | 1
Cc1ccccc1-n1c(C)cc(/C=N/NC(=O)c2ccc(CN3CCOCC3)cc2)c1C | 18% | -5% | 4.0% | -1
CCN(CC)CCN(C(=O)c1ccc(S(=O)(=O)N2CCOCC2)cc1)c1nc2cc3c(cc2s1)OCCO3 | -1% | -21% | -0.5% | x
CCC(=O)c1ccc(OCC(=O)OCC(=O)Nc2ccc(C)c(S(=O)(=O)N3CCCCC3)c2)cc1 | -6% | x | 0.0% | x
C#CCOCCOCCOCCNc1nc(N2CCN(C(=O)CCCCCCCCCCNC(=O)[C@H](CCC(=O)O)n3cc(CCCCCN)nn3)CC2)nc(N2CCN(C(=O)CCCCCCCCCCNC(=O)[C@@H]([C@H](C)O)n3cc(C)nn3)CC2)n1 | 28% | x | 1.1% | x
O=C(COc1ccccc1F)NNC(=O)Cc1ccc(S(=O)(=O)N2CCOCC2)s1 | -8% | x | 1.7% | x
CCOC(=O)C1CCCN(C(=S)NC(=O)/C=C/c2ccc(F)cc2)C1 (stereo not given) | 28% | -5% | -0.6% | x
COc1cc(C(=O)NCc2ccc(S(N)(=O)=O)cc2)ccc1OCC(=O)N1CCOCC1 | -3% | x | 4.2% | x
COc1ccc(NC(=S)NCCN2CCC(C)CC2)cc1 | -6% | -7% | 0.1% | 4
CCN1/C(=C/C=C/C=C/C=C/c2sc3ccccc3[n+]2CC)Sc2ccccc21 | -19% | -1% | u | x
CC(C)(C)OC(=O)C[C@H]1C/C=C\C[C@H](CC(=O)N(CCO)Cc2ccccc2)C(=O)N[C@@H](Cc2ccccc2)COC1=O | 27% | x | -0.8% | x
Cc1ccc(Oc2nnc(-c3cccs3)c3ccccc23)cc1C | -11% | -4% | 3.2% | -22
COc1cccc(/C=C/C(=O)OCC(=O)NCCCc2ccccc2)c1OC | -6% | x | 6.0% | x
N#Cc1c(N)n(-c2ccccc2)c(=O)c2cc([N+](=O)[O-])ccc12 | -9% | 5% | u | 4
CCN1CCN(S(=O)(=O)c2ccc(-c3cc(C)no3)s2)CC1 | -5% | 5% | 3.4% | x
O=C(CCC(=O)OCc1ccc([N+](=O)[O-])cc1Cl)Nc1ccccc1 | -13% | -1% | -2.3% | x
CC(=O)c1ccc(S(=O)(=O)N2CCNCC2)cc1 | -6% | -1% | 0.2% | -3
O=C(Nc1cccc(C(F)(F)F)c1)c1cc(Br)cc2c1OCC2 | 4% | -4% | 0.8% | -1
CCOc1ccc(N2C(=O)CN=C2Nc2ccccc2F)cc1 | 17% | -3% | 1.6% | 0

Only part of the results is shown; rates above refer to the full screens.
